Assay outcomes from PubChem BioAssay.
Mtb bLac sens = beta-lactam sensitization of Mtb H37Rv. M. tuberculosis H37Rv growth with meropenem, percent inhibition; hits of this screen are not shown here. inhibition, % at 25 µM. 330,000 compounds, 0.27% hits. AID 434955;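 active = about 74% or more and at least 40 points above the plate without the antibiotic, then above 30% in a dose series; inconclusive = first-round hits that could not be retested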;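 note: growth measured after seven days incubation then overnight dye step; 0% = bacteria only wells and 100% = bacteria with antibiotic; twin plates without the antibiotic show which effects depend on it; some results filed as inactive read as strong as hits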
Arbovirus inh = antivirals against arbovirus infection; arbovirus infection cell-based antiviral screen; inhibition, % at 10 µM; 200,000 compounds, 0.37% hits; AID 1251;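 active = inhibition from about 30%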;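 note: bluetongue infection of BSR cells; cell survival read as ATP light after 72 h; 0% = infected wells without compound and 100% = uninfected wells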
Mtb H37Rv = M. tuberculosis H37Rv growth inhibitors, H37Rv strain (AID 1626); M. tuberculosis H37Rv growth inhibition; higher % means a stronger effect; one-dose inhibition, % at 10 µM; IC50 in µM for titrated hits; 220,000 compounds, 0.95% hits;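 active = confirmed in a dose series; inconclusive = inhibition above 80% but not taken into the dose series; inactive = below 80% or under 30% at every dose of the series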;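 note: bacteria incubated seven days before Alamar blue readout; 0% = bacteria only wells and 100% = bacteria with antibiotic wells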
RecA intein inh = Mtb RecA intein splicing inhibition; cell-free RecA intein splicing, fluorescence; inhibition, %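 (about 9 µM by stock and volumes)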; 290,000 compounds, 0.75% hits; AID 2221; in the data active = inhibition above about 30%; inconclusive = no clear call, values can overlap the other calls;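 note: 0% = vehicle wells and 100% = reference inhibitor control wells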
Target sequence (P9WHJ3 whole entry, looked up): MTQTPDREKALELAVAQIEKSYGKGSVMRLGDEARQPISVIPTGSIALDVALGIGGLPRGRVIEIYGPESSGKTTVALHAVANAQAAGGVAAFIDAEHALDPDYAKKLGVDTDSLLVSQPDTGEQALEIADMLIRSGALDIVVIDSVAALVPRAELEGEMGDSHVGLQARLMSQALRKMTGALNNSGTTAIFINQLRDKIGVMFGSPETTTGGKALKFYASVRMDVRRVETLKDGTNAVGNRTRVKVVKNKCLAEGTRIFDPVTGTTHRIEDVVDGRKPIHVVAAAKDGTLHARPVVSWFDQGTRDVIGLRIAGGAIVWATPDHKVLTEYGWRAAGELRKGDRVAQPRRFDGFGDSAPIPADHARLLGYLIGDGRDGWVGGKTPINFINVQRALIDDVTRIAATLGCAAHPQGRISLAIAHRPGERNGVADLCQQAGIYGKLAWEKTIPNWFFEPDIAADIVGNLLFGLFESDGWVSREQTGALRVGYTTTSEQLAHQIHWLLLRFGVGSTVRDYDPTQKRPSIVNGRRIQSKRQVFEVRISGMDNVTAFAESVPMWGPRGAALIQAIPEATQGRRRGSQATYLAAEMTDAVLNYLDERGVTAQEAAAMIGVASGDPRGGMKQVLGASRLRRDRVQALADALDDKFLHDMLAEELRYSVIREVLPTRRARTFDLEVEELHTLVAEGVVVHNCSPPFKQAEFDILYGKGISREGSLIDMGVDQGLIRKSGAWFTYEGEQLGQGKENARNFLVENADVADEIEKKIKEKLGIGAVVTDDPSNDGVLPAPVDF
YopH PTP inh = blocks Yersinia enterocolitica YopH tyrosine phosphatase; fluorescence Ex485/Em525; inhibition, %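 (about 10 µM by stock and volumes)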; 140,000 compounds, 0.16% hits; AID 898;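 active = inhibition of 50% or more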;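 note: controls were vehicle for no effect and minimum signal wells for full effect; inactives centre near -20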
Arbovirus inh repeat = recorded beside Arbovirus inh, whose call it bears; inhibition, %; measured here: 10K subset replicate screen; many hits read low in the repeat;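 first of two repeat runs on a subset; 0% = infected and 100% = uninfected wells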
Active calls of the source: *; u = inconclusive; x = no result given.

SMILES	Mtb bLac sens	Arbovirus inh	Mtb H37Rv	RecA intein inh	YopH PTP inh	others
CC1(C)CC2CC(C)(CN2C(=O)c2cccs2)C1 (stereo unspecified)	5	3	-10%	-0.9	-2
CCOC(=O)Cc1csc(NC(=O)Nc2ccc(F)cc2)n1	-6	x	-3%	-0.5	x
CC(C)C1(CCNC(=O)c2cccs2)CCOC(C)(C)C1 (stereo unspecified)	2	x	-2%	0.2	x
Cc1cccc(OCC(=O)N2CCOCC2)c1	-1	8	-5%	-8.0	-17
COc1ccccc1CCC(=O)Nc1cccc(S(=O)(=O)N2CCCCCC2)c1	-2	x	x	6.2	x
CCCOc1ccc(NC(=O)CNC(=O)c2cc(OC)cc(OC)c2)cc1OCCC	-2	x	x	3.4	x
CCC(=O)Nc1nnc(-c2ccc(OC)cc2)o1	23	-4	6.1µM*	-0.9	6	Arbovirus inh repeat=-9
O=C(NCc1ccccc1OC(F)(F)F)C1CCC(=O)N(C2CC2)C1 (stereo unspecified)	-5	x	x	1.6	x
COC(=O)[C@@H]1Cc2c([nH]c3ccccc23)C(C)(C)N1C(=O)CCl	74	x	x	-3.6	x
CC(C)(C)OC(=O)N[C@@H](Cc1ccccc1)C(=O)NCC1CCC(C(=O)N[C@@H](CCC(N)=O)C(=O)O)CC1 (stereo partly specified)	5	x	x	-3.3	x
COCC(C)NC(=O)CCc1nnc(C2(c3ccc(Cl)cc3)CCC2)o1 (stereo unspecified)	-2	6	12%	0.2	x
CN=C(SCc1ccccc1)c1c(O)n(C)c(=O)n(C)c1=O	u	x	-1%	-0.9	-54
CCOC(=O)CSc1nnc(CCCCCN2C(=O)c3cccc4cccc(c34)C2=O)o1	63	0	35%	x	-24
COc1ccc(NC(=O)/C(=C/c2cccnc2)NC(=O)c2cccs2)cc1	0	-4	9%	-0.7	53*
O=CNc1ccccc1Oc1ccccc1	0	-2	3%	0.5	-22
COc1ccc(/C=C/C(=O)NC(=S)NCCc2ccc(OC)c(OC)c2)cc1	4	3	5%	1.3	-23
OCCN1CCN(c2ncnc3nc[nH]c23)CC1	-2	0	-4%	1.0	-18
COc1ccc(S(=O)(=O)N(Cc2ccccc2)Cc2nc(-c3ccccc3)no2)cc1	-7	4	8%	7.3	-5
CCC(=O)NC(=S)Nc1ccc(S(=O)(=O)NC(C)C)cc1	-1	9	0%	3.1	-11
CN(C(=O)CCN1C(=O)c2ccccc2C1=O)C1CCCCC1	6	1	-7%	2.2	-19

Ordered by SMILES length (highest first): part of the list above
SMILES	Mtb bLac sens	Arbovirus inh	Mtb H37Rv	RecA intein inh	YopH PTP inh	others
COc1ccc(S(=O)(=O)N(Cc2ccccc2)Cc2nc(-c3ccccc3)no2)cc1	-7	4	8%	7.3	-5
COc1ccccc1CCC(=O)Nc1cccc(S(=O)(=O)N2CCCCCC2)c1	-2	x	x	6.2	x
CCC(=O)Nc1nnc(-c2ccc(OC)cc2)o1	23	-4	6.1µM*	-0.9	6	Arbovirus inh repeat=-9

(continued)
SMILES	Mtb bLac sens	Arbovirus inh	Mtb H37Rv	RecA intein inh	YopH PTP inh	others
O=C(CSc1ncnc2sc3c(c12)CCCC3)c1ccco1	55	13	6%	5.4	-42
Cc1ccc(S(=O)(=O)N(CC(=O)Nc2cccc(N(C)S(C)(=O)=O)c2)c2ccc(Cl)c(Cl)c2)cc1	21	-4	16%	14	-16
NS(=O)(=O)c1ccc(CNC(=S)NCc2ccc(F)cc2)cc1	2	x	x	-2.8	x
Cc1[nH]c(C)c(S(=O)(=O)N2CCN(c3cccc(Cl)c3)CC2)c1C(=O)N1CCCCC1	2	x	x	1.9	x
CC1CC(C)CN(C(=O)COc2ccc([N+](=O)[O-])cc2Cl)C1 (stereo unspecified)	12	-1	-3%	-0.7	x
Cc1ccc2c(c1)N(CC(=O)NCCc1c[nH]c3ccccc13)C(=O)CO2	-5	1	-2%	3.2	-32
COc1cccc(CNC(=O)Cc2ccc(NC(=O)C3=C(C)OCCS3)cc2)c1	4	x	x	0.1	x
Cc1cc(/C=C2\C(=O)NC(=S)N(C)C2=O)c(C)n1C1CCCCC1	96	5	4%	-0.7	-2
CC(OC(=O)c1cccc(S(=O)(=O)N2CCCC2)c1)C(=O)c1ccccc1 (stereo unspecified)	4	x	x	-0.6	x
Cc1ccc(C(=O)C(C(=O)/C=C/c2ccccc2)=C2SCCCS2)cc1	0	-36	11%	4.4	-3
CCOC(=O)N1CCN(C(=O)c2ccc3nc4cc(Cl)ccc4c(=O)n3c2)CC1	-5	x	-3%	-72	-25
CC(C)(C)OC(=O)N1CCC(C(=O)N[C@@H](Cc2c[nH]c3ccccc23)C(=O)O)CC1	-1	x	x	2.3	x
CNC(=S)N/N=C/c1cc(Br)c(OCc2ccncc2)c(OC)c1	0	x	x	-2.0	x
NNc1ncnc2sc3c(c12)CCC3	100	2	0%	-4.9	x
Cc1cc(C)nc(/N=C(\N)Nc2ccc(S(=O)(=O)Nc3nccc(C)n3)cc2)n1	-5	-4	-14%	-11	x
O=C(CN1C(=O)c2ccccc2S1(=O)=O)NCCSCc1ccco1	-6	0	0%	-1.6	-54
COc1ccc(NS(=O)(=O)c2cc(NC(=O)[C@@H](NC(=O)c3ccccc3)C(C)C)ccc2C)cc1	17	-16	82%	0.3	-13
Cc1ccc(NC(=O)Cc2cn3ccsc3n2)nc1	-19	-1	-4%	-3.8	-20
O=C(Cn1ccc([N+](=O)[O-])n1)NCc1cccs1	1	-6	-9%	1.2	-12
CCNC(=S)NNC(=O)C(c1ccccc1)c1ccccc1	3	4	1%	x	-30
Cc1cc(S(=O)(=O)N2CCC3(CC2)OCCO3)c(C)cc1Cl	3	x	x	3.3	x
Cc1c(N=Cc2c(O)n(C)c(=O)[nH]c2=O)c(=O)n(-c2ccccc2)n1C	1	x	-4%	-1.0	x
O=C(Cc1ccccc1F)Nc1ccc(S(=O)(=O)Nc2ncccn2)cc1	-6	x	x	-5.2	x
O=[N+]([O-])/C=C/c1ccc2c(ccn2Cc2ccccc2)c1	100	x	x	-0.9	x
COc1ccc(-c2c(C)oc3ccc(C)cc23)cc1	1	2	6%	3.8	-30
CC(Oc1ccccc1)C(=O)NNS(=O)(=O)c1ccc([N+](=O)[O-])cc1 (stereo unspecified)	19	16	2%	2.4	-23
Cc1cccc(OCC(=O)N/N=C/c2ccc(N(C)C)cc2)c1	0	-5	0%	-0.5	x
O=C(Nc1cccc(-c2cscn2)c1)C1CCN(Cc2ccsc2)CC1	3	x	x	0.8	x
CCOc1ccccc1CN(CCc1ccc2c(c1)OCO2)Cc1ccccn1	52	1	4%	2.2	-44
Cc1ccc(/C=N/NC(=O)c2ccncc2)o1	98	3	u	-1.1	-8
Cc1cc(Nc2ccc(Cl)cc2)n(-c2ccccc2)n1	2	1	18%	6.9	-18
N#CCN(N=Nc1ccccc1)c1ccccc1	99	x	x	3.9	x
CC(=O)N1[C@H](Cc2ccccc2)C=C[C@]1(C)C(=O)NCc1ccccn1	-4	2	-12%	-0.5	-12
CC(C)CC(OC(=O)c1ccco1)C(=O)NCC1CCCO1 (stereo unspecified)	2	3	3%	-4.4	-10
O=C(CCN1CCCO1)N1CCCC(N2CCN(c3ccccc3F)CC2)C1 (stereo unspecified)	-4	x	x	2.5	x
Cc1cc(C)n(-c2c(F)c(F)c(COC(=O)c3ccccc3)c(F)c2F)n1	-14	3	12%	16	-12
Cc1ccc(-n2c(O)c(C=NC3CCS(=O)(=O)C3)c3ccccc3c2=O)cc1 (stereo unspecified)	-4	3	5%	x	-4
Cn1nc(-c2ccccc2)c(C(=O)Nc2ccc(C(F)(F)F)cc2)c1Cl	3	-14	-6%	-0.7	-45
O=C(OCC(=O)N1CCN(c2ccccc2)CC1)c1ccccc1[N+](=O)[O-]	1	x	x	-1.4	x
c1cc(-c2noc(CC3CCCCC3)n2)ccn1	-5	5	9%	x	-23
CC(C)c1ccccc1NC(=O)c1ccc2ncsc2c1	4	x	x	4.6	x
CC1=C(C(=O)Nc2ccc([N+](=O)[O-])cc2)C(c2cccc(C(F)(F)F)c2)NC(=S)N1c1ccccc1 (stereo unspecified)	96	-33	38%	9.8	-10
O=C(C[n+]1cccc(CNC(=O)c2ccc(OC(F)F)cc2)c1)Nc1ccc(SC(F)F)cc1	93	-9	38%	2.1	7
CC(=O)NCCNC(=O)c1ccc(NC2=NC3CS(=O)(=O)CC3S2)cc1 (stereo unspecified)	-3	x	-7%	-2.3	x
COc1ccc(-c2cn3c(C)c(C(=O)NCCN4CCOCC4)sc3n2)cc1	-17	-2	x	-2.4	-13
COCCCNC(=O)c1cccc(OC)c1OC	-3	2	1%	-1.0	10
Cc1cc([N+](=O)[O-])ccc1NC(=O)Cc1ccc(F)cc1	0	4	6%	0.6	-25
O=C(Oc1ccc2c(c1)OCO2)c1cc2c(s1)CCC2	99	21	-5%	3.7	-13
COc1ccc(OC)c(NC(=O)c2cc(-c3ccc(C)cc3O)n[nH]2)c1	8	31*	0%	x	92*
Cc1ccc(C(=O)Nn2cnc3scc(-c4cccs4)c3c2=O)c(O)c1	-6	-4	-5%	-4.7	-9
Cn1ncc(Br)c1C(=O)NC12CC3CC(CC(C3)C1)C2	4	-3	4%	-1.2	-6
COc1ccccc1NC(=O)C1=C(C)NC2=C(C(=O)CCC2)C1c1ccc(C)o1 (stereo unspecified)	-2	-2	-18%	-1.5	-29
CC1CC(C)CN(C(=O)COC(=O)C2CCN(S(=O)(=O)c3ccc4c(c3)OCCO4)CC2)C1 (stereo unspecified)	-5	x	x	-51	x
COc1ccc(OC)c(S(=O)(=O)N2CCCC2C(=O)NC(C)c2ccccc2)c1 (stereo unspecified)	-4	x	x	0.9	x
Cc1ccc(NC(=O)Nc2cccc([N+](=O)[O-])c2)cc1F	-3	13	-15%	2.4	-29
CC(C)NCC(=O)C12CC3CC(CC(C3)C1)C2	-1	x	-2%	-0.8	x
Cc1cccc(/C(N)=N/OC(=O)c2ccncc2)c1	3	x	x	1.3	x
CC(C)C(CCNCc1ccccn1)c1ccc(Cl)cc1 (stereo unspecified)	22	x	x	2.5	x
COCCNC(=O)C(c1ccncc1)N(Cc1ccccc1)C(=O)Cn1nnc2ccccc21 (stereo unspecified)	0	3	6%	-1.9	x
N#CC1=C(N)NC(SCc2ccc(F)cc2)=C(C#N)C12CCCCC2	19	-23	16%	8.7	-6

Further compounds follow:
SMILES	Mtb bLac sens	Arbovirus inh	Mtb H37Rv	RecA intein inh	YopH PTP inh	others
COc1ccc(NC(=O)Cn2cc(C#N)c3ccccc32)cc1	-6	4	-1%	-1.1	x
COc1ccc(C(=O)Nc2ccc(S(=O)(=O)Nc3nccc(C)n3)cc2)cc1OC	-4	0	-3%	0.4	9
Cc1ccc(/C=C2\Oc3c(ccc(O)c3CN3CCN(CCO)CC3)C2=O)cc1	5	0	-3%	-15	x
COc1ccc(CC(=O)O/N=C(\N)c2ccncc2)cc1	-3	x	-4%	-1.6	x
CC(=O)Nc1ccc(NC(=O)c2cc([N+](=O)[O-])cc([N+](=O)[O-])c2)cc1	91	x	x	-1.6	x
CCc1ccc(NC(=O)Nc2ccon2)cc1	-1	x	x	2.4	x
CCCS(=O)(=O)N1CCC(C(=O)N2CCC(Cc3ccccc3)CC2)CC1	-5	-7	2%	-0.7	-29
COc1ccc(/C=C2\SC(=S)N(CCCCCC(=O)Nc3cc(C)on3)C2=O)cc1OC	5	x	x	2.2	x
O=C(CCc1ccccc1)NNC(=S)NCCc1ccccc1	-4	x	x	-2.3	x
CCOc1ccccc1NC(=S)N1CCCCCC1	3	x	x	-0.9	x
COc1ccc(NC(=O)CCCn2cc([N+](=O)[O-])cn2)cc1	88	-1	10%	1.3	x
O=c1[nH]ncc(N2CCCC2)c1Cl	1	0	-3%	-4.2	x
Cc1noc(C)c1S(=O)(=O)N1CCC(C(=O)NC2CCN(Cc3ccccc3)CC2)CC1	-10	2	2%	-0.7	-8
O=C(NCCCN1CCN(c2ccccc2F)CC1)C1CCC(=O)N1C1CCCC1 (stereo unspecified)	-5	1	-7%	-7.3	-15	Arbovirus inh repeat=4
COc1ccc(CN(C)C(=O)c2ccc3c(=O)n4c(nc3c2)CCC4)cc1	-6	x	x	3.2	x
COc1cc2c(cc1OC)CC1(CCCCC1)N=C2	-4	-11	-1%	-92	x
O=C(c1ccc(Br)o1)N1CCC(Cc2ccccc2)CC1	-12	x	x	13	x
CC(c1ccccn1)N(CCN(C)C)C(=S)Nc1cccc(F)c1 (stereo unspecified)	-4	11	-8%	-2.7	-12

Random excerpt: three compounds from above.
SMILES	Mtb bLac sens	Arbovirus inh	Mtb H37Rv	RecA intein inh	YopH PTP inh	others
CCOc1ccccc1NC(=S)N1CCCCCC1	3	x	x	-0.9	x
COc1ccc(CN(C)C(=O)c2ccc3c(=O)n4c(nc3c2)CCC4)cc1	-6	x	x	3.2	x
CCCS(=O)(=O)N1CCC(C(=O)N2CCC(Cc3ccccc3)CC2)CC1	-5	-7	2%	-0.7	-29

An excerpt; count on the stated rates, not on these rows.
